From PubChem
Env fusion inh: inhibitors of HIV Env-mediated cell fusion. HeLa-JRFL Env/CEM21 cell fusion, luciferase. inhibition, % at 12.3 µM. 360,000 tested, 1.1% active. AID 651610;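 active = mean replicate inhibition score of at least 50 and every replicate individually at or above 50; inconclusive = only one of the two criteria met; inactive = mean below 50 and not all replicates reaching 50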;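 also: 0% = plate neutral controls and 100% = maraviroc near 300 nM; one replicate is shown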
PABP polyA inh: PABP-poly(A) binding inhibition; inhibition, % at 35 µM; P11940; 290,000 tested, 1% active; PABP-poly(A) RNA binding, fluorescence polarization;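 active = 50% or more with normal probe brightness, or confirmed in later tests; inconclusive = above 50% with abnormal brightness, or retests that disagree; inactive = below 50% or failed in later tests; about a fifth of its hits are not listed in these tables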;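 also: calls also rest on retests at 20 µM and on dose response follow-up; controls were probe without protein and protein plus probe with vehicle; some compounds called inactive have numbers as strong as hits; many hits fall short of the cut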
UUG fidelity: alters start codon recognition fidelity in yeast; S. cerevisiae UUG-firefly luciferase reporter, luminescence/redox ratio; activity score, % at 18.7 µM; 350,000 tested, 0.13% active;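 active = replicate mean at a twofold rise or more, about +100% in these data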;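 also: firefly luciferase made from a UUG start codon reports start codon fidelity; reporter light over untreated wells divided by growth signal over untreated wells; some hits fall short of that in this replicate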
MT1-MMP act inh: blocks activation of human MT1-MMP; HT1080 RFP-PRO-GFP cells, GFP/RFP ratio fluorescence, overnight; percent of plate control window, DMSO zero; P50281; GFP/RFP ratio change, % at 20 µM; 360,000 tested, 0.061% active; AID 651647;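 active = GFP/RFP ratio change of at least 30% with cell ATP level not reduced by more than half and red fluorescence within 50% of control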; also: strong numbers were not always called active
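Assay system – RFP-PRO-GFP reporter HT1080 cells · Compound dosing – single dose of 20 µM compound, 1% DMSO final · Incubation – overnight compound exposure at 37 °C · Measure – GFP/RFP fluorescence ratio · Benchmarks – DMSO wells and RFP-L50D-GFP cells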
CSC inhib: cancer stem cell inhibition; cancer stem cell-like cells viability, luminescence; inhibition, % at 7.5 µM; 300,000 tested, 1.1% active; AID 2717;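 active = mean at 75% or more and at least half the replicates too; inconclusive = mean and replicates disagree; tested in HMLE shEcad cells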;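 also: 0% = median of negative and 100% = median of positive control wells; the first replicate is given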
Rce1 inhib: yeast Ras-converting enzyme inhibition | 290,000 tested, 0.27% active | calls only | Q03530 | yeast membranes, quenched prenylated peptide cleavage fluorescence;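 active = fall in fluorescence gain of 50% or more versus controls, with final raw signal at or below 3038400; inconclusive = same 50% fall but final raw signal above 3038400; inactive = fall in fluorescence gain under 50%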;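 also: plate controls were neutral control wells for no effect and wells lacking membranes for full effect; tested at 10 µM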
Target sequence (Q03530 whole entry, looked up): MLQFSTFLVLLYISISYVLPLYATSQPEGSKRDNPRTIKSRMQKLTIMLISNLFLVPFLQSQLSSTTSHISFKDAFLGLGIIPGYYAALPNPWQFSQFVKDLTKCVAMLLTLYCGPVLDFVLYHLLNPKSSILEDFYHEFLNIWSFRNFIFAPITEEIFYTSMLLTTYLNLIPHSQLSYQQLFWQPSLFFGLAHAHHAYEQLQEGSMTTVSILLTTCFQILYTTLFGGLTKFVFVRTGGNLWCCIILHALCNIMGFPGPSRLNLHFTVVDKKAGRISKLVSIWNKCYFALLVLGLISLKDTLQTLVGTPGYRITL
eIF4H inh: inhibitors of RNA binding by human eIF4H; eIF4H fluorescence polarization binding assay; inhibition, % at 35 µM; 290,000 tested, 0.94% active;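 active = 50% or more with normal probe brightness, or confirmed in later tests; inconclusive = above 50% with abnormal brightness, or retests that disagree; inactive = below 50% or failed in later tests; about a fifth of its hits are not listed in these tables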;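 also: calls also rest on retests at 20 µM and on dose response follow-up; 0% = protein and probe with vehicle and 100% = probe without protein; strong numbers were not always called active; many hits fall short of the cut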
MT1-MMP act inh RFP: further read-out of MT1-MMP act inh, marked with its call; RFP signal change, %; measured here: RFP expression control read;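 0 = vehicle wells; hits needed this value within 50% of zero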
* marks the source's active call; other numbers are inactive results; i = inactive; ? = inconclusive; . = no result given; & = joins results of further samples.

SMILES	Env fusion inh	PABP polyA inh	UUG fidelity	MT1-MMP act inh	MT1-MMP act inh RFP	CSC inhib	Rce1 inhib	eIF4H inh
CCN1CCCC(CO)(Cc2ccccc2)C1 (configuration not stated)	7.2	5.7	.	0.5	4.0	-8.9	i	-3.6
C/C(=N\NC(=O)c1ccc2c(c1)OCO2)c1ccc(C(=O)O)s1	-17.6	16.0	.	-4.9	0.1	-0.3	i	1.2
O=C(CCCCC(=O)NN=Cc1ccc2c(c1)CCC2)NN=Cc1ccc2c(c1)CCC2	35.4	.	-3.0	0.9	2.6	.	.	.
CCOc1ccc(-c2c(C(=O)N/N=C/c3c[nH]c4ccccc34)nnn2-c2nonc2N)cc1	9.6	-2.0	-6.6	2.4	-4.6	-9.6	i	-3.3
COc1ccccc1NC(=O)C(C)OC(=O)CCC1CCCCC1 (configuration not stated)	0.3	-5.1	-10.7	5.5	2.5	-7.2	i	-9.7
Cc1ccc(S(=O)(=O)NCCNC(C)c2ccc(Br)cc2)cc1 (configuration not stated)	.	.	-6.1	-2.5	2.7	20.5	.	.
Cc1c(Nc2ncnc3nc[nH]c23)c(=O)n(-c2ccccc2)n1C	4.5	-5.8	-14.5	-0.2	5.4	-6.3	i	-11.1
O=C(O)c1cc(NS(=O)(=O)c2cccc3nsnc23)cc(C(=O)O)c1	2.3	0.4	-16.9	-0.5	-0.9	-16.6	i	-13.0
CCOC(=O)C1=C(C)NC(SCC(=O)O)=NC1c1ccccc1 (configuration not stated)	.	-2.0	.	.	.	2.2	i	-10.7
COc1cc(C(C)=O)ccc1OCC(O)CN1CCN(S(=O)(=O)c2ccccc2)CC1 (configuration not stated)	.	-10.1	1.0	-1.9	1.7	1.0	i	-6.7
COc1ccc(-c2[nH]ncc2CNC(C)c2ccccc2Cl)cc1F (configuration not stated)	51.5	9.6	.	-5.8	-3.9	-3.7	i	0.0
COc1ccc(NC(=O)CN2C(=O)NC(c3ccccc3)(c3ccccc3)C2=O)cc1	-37.2	7.8	-11.6	-2.3	0.2	9.5	.	-12.0
CC(=O)c1ccc(NC(=O)C(Cc2ccccc2)NC(=O)c2ccco2)cc1 (configuration not stated)	-23.7	0.5	-20.0	-1.3	0.5	2.7	i	-9.5
CCCn1nnc(NC(=O)c2ccccc2Br)n1	-10.8	-5.3	-2.9	4.9	0.5	-3.6	i	3.4
CN(C(=O)c1cccc(C#N)c1)c1nnc(C2CCOC2)s1 (configuration not stated)	22.8	-7.2	0.6	3.2	4.5	3.4	i	0.1
CCOC(=O)c1ccc2nc(Nc3nc4ccc(F)cc4s3)sc2c1	14.0	2.0	.	1.0	0.9	55.7	i	8.3
O=C(COc1cccc2ccccc12)N/N=C/c1ccco1	-29.6	-1.5	-3.8	1.5	1.6	9.5	.	-10.9
Cc1ccc(-c2nc3ccc(Br)cn3c2Cc2cccc(F)c2)cc1	-96.1	.	-2.0	-5.5	2.6	.	.	.
CC(=O)c1cccc(-c2cnc3c(NC=O)cc(-c4ccc(N(C)C)cc4)cn23)c1	-42.0	.	-30.8	-80.3	3.5	.	.	.
O=C(O)c1ccccc1NS(=O)(=O)c1ccccc1C(F)(F)F	.	1.9	-8.2	3.5	5.4	20.4	i	-3.0
NC(=O)c1ccc[n+](CC(=O)c2ccc(NC(=O)c3ccccc3)cc2)c1	-1.8	-6.7	-11.4	-0.5	1.5	-1.8	i	-5.1
CC(C)(C)C(=O)Nc1ccc2oc(-c3cc(F)c(F)cc3Cl)nc2c1	.	2.2	-9.2	1.2	-3.8	8.5	i	2.8
C/C=C/c1ccc(OCC(=O)OCC)c(OC)c1	-6.4	-3.5	-6.1	11.8	12.1	-24.0	i	-2.9
Clc1ccc(Oc2cccc(/C=N/n3cnnc3)c2)cc1	.	-1.6	-14.6	5.3	-5.4	5.2	i	2.8
COc1ccc(CCN2CC(C(=O)NCc3c(C)n[nH]c3C)CCC2=O)cc1 (configuration not stated)	10.5	-17.7	-8.6	-4.7	-1.1	-4.0	i	20.4
CCc1ccccc1NC(=O)/C(=C/c1ccccc1)c1ccccc1	28.1	-8.4	-4.5	-10.4	-15.2	10.5	i	-4.1
CCN(CC)CC(C)CNC(=O)CC(C(=O)N1CCc2ccccc21)n1ccnc1 (configuration not stated)	-18.3	1.1	-19.9	-0.8	1.6	0.8	i	2.9
CCCc1cc(=O)[nH]c(SCC(=O)c2cc(C)n(C3CC3)c2C)n1	.	2.3	-5.5	0.1	1.1	-6.3	i	-18.2
O=C(O)c1cccnc1SC1CC(=O)N(CCc2ccccc2)C1=O (configuration not stated)	.	13.5	2.8	-8.1	-0.6	-4.3	i	0.2
C=CCOC(=O)/C(=C/c1ccco1)NC(=O)/C=C/c1ccccc1	3.5	3.9	38.1	0.3	4.9	10.6	i	-2.0
CCc1cccc(C)c1NC(=O)CNCc1ccccc1	-65.8	5.1	.	0.9	7.0	-14.2	i	-4.9
O=C(CCCc1nc2ccccc2s1)NC(c1ccccc1)c1ccccc1	-31.1	-7.4	.	-1.0	-2.8	-29.0	i	-1.2
O=c1[nH]c(/C(Cl)=C/c2c(F)cccc2Cl)nc2cc(Cl)ccc12	.	12.5	-0.8	-0.2	-1.9	-11.9	i	-3.8
Cc1ccc2nc(/C(C#N)=C\c3ccc([N+](=O)[O-])o3)[nH]c2c1	.	-1.1	-18.9	-73.9	91.1	2.8	i	4.8
COc1ccccc1/C=C/C(=O)NC(=S)N(C)C1CCCCC1	.	16.0	-29.2	-5.3	-2.0	-15.4	i	8.0
CCn1c(CCCc2ccc(OC)c(C)c2)n[nH]c1=S	-2.2	6.4	-33.1	-2.5	-0.4	-12.6	i	-3.4
COc1ccccc1C(=O)NC(=O)COc1ccc([N+](=O)[O-])cc1	-0.3	.	6.6	0.3	2.7	-3.5	i	.
COc1ccc(NC2=NC(C)(CO)CS2)cc1 (configuration not stated)	-10.6	11.1	-26.7	3.8	0.4	-5.0	i	-1.2
O=C(CCn1cnc2ccccc21)N/N=C/c1ccc(O)cc1	11.9	-3.2	-15.6	1.1	4.2	-12.1	.	-11.3
COc1ccc(Cl)cc1NC(=O)CN1CCCC1	?	39.4	.	4.6	5.7	-6.9	i	-0.7
Cc1cc(C)n2nc(C(=O)N/N=C/c3ccccc3Cl)nc2n1	16.9	31.6	-11.5	2.8	7.9	14.4	i	-7.8
COc1cccc(C(C(=O)NC2CCCC2)N(Cc2cccnc2)C(=O)Cc2cccs2)c1 (configuration not stated)	-12.3	-1.9	-21.4	-1.1	0.0	19.1	i	-9.7
CCOC(=O)C(C(=O)OCC)=C1OC(=O)c2ccccc21	-2.9	2.2	4.7	3.2	6.0	-1.8	i	-4.5
COc1ccc(C2=NN(C(=O)c3cccs3)C(c3ccccc3O)C2)cc1 (configuration not stated)	-0.2	-4.4	.	-5.2	-10.3	.	i	-4.7
C[C@H](CO)N1C[C@H](C)[C@@H](CN(C)S(=O)(=O)c2ccc(-c3ccccc3)cc2)OCc2cn(nn2)CCCC1=O	-24.0	.	5.4&5.2	0.0	1.7	.	.	.
CCc1ccc2[nH]c3nc(N/N=C/c4ccc(O)cc4O)nnc3c2c1	40.3	7.4	-23.0	-4.4	-9.7	67.3	i	11.1
CCc1ccc(C2CC(c3ccc(C)cc3)n3nc(N)nc3N2)cc1 (configuration not stated)	-0.9	.	-13.1	0.1	1.9	.	.	.
CCOC(=O)CC1=NS(=O)(=O)c2ccccc2N1	-60.1	4.6	-7.8	-3.6	5.6	-6.9	i	-0.6
N#Cc1c(N)nc(SCC(=O)OCc2ccccc2)c(C#N)c1-c1ccco1	-4.3	-6.1	-16.7	-1.3	7.0	-9.1	i	0.1
O=C1CCC(C(=O)N2CCCC(C(=O)c3ccc4c5c(cccc35)CC4)C2)=NN1 (configuration not stated)	27.4	5.1	-0.8	0.2	1.9	19.2	i	2.3
C/C(=C1\SC(N2CCOCC2)=NC1=O)c1ccccc1	6.0	-6.4	22.5	5.7	1.0	-4.9	i	-10.4
Cc1ccc(N2CC(c3nc4ccccc4n3C)CC2=O)cc1 (configuration not stated)	-4.4	10.4	-11.5	4.0	2.9	-6.8	i	-11.1
Cc1ccc(SCCN2CCC(O)CCC2=O)cc1 (configuration not stated)	-7.3	-0.1	-22.1	0.9	0.3	-11.1	i	-4.8
CC(Nc1ncnc2ccccc12)c1ccccc1 (configuration not stated)	6.4	9.7	-19.5	7.3	-29.8	22.0	i	-11.6
COc1ccc(CNC(=O)COC(=O)c2ccc(S(=O)(=O)NCc3ccco3)cc2)cc1	-7.2	.	-15.8	-1.3	2.4	15.3	.	.
COc1cc(CC(=O)Nc2ccccc2N2CCCCC2)cc(OC)c1OC	17.1	-2.1	-5.2	2.3	-4.9	.	i	-5.3
COc1ccc(C(C[N+](=O)[O-])n2nc(C)cc2C)cc1 (configuration not stated)	-49.7	-0.8	.	6.8	1.7	-3.6	i	-4.7
CNC(=O)c1cc2c(-c3ccccc3)nn(C)c2s1	0.0	7.2	-15.7	12.1	-9.8	4.6	i	3.8
Cn1cccc1/C=N/NC(=O)c1cc(-c2cccs2)nc2ccccc12	23.6	-3.5	.	-7.4	-15.6	.	i	2.8
Cc1ccccc1NC(=S)NC(NC(=O)COc1ccccc1)C(Cl)(Cl)Cl (configuration not stated)	-33.4	4.2	-23.9	-0.3	-3.5	4.4	i	-13.6

Three entries from above, with values under each structure.
Results follow in this order: Env fusion inh, PABP polyA inh, UUG fidelity, MT1-MMP act inh, MT1-MMP act inh RFP, CSC inhib, Rce1 inhib, eIF4H inh
- O=C(CCCc1nc2ccccc2s1)NC(c1ccccc1)c1ccccc1
→ -31.1, -7.4, ., -1.0, -2.8, -29.0, i, -1.2
- O=c1[nH]c(/C(Cl)=C/c2c(F)cccc2Cl)nc2cc(Cl)ccc12
→ ., 12.5, -0.8, -0.2, -1.9, -11.9, i, -3.8
- Cc1ccc2nc(/C(C#N)=C\c3ccc([N+](=O)[O-])o3)[nH]c2c1
→ ., -1.1, -18.9, -73.9, 91.1, 2.8, i, 4.8

(list continues)
SMILES	Env fusion inh	PABP polyA inh	UUG fidelity	MT1-MMP act inh	MT1-MMP act inh RFP	CSC inhib	Rce1 inhib	eIF4H inh
O=[N+]([O-])c1cccnc1N1CCCCC1	-49.0	-8.9	-16.3	9.4	5.4	-15.8	i	-2.7
CCOC(=O)N1CCN(C(=O)/C=C/c2ccc(C(C)(C)C)cc2)CC1	5.8	-1.9	12.2	7.7	-3.4	4.1	i	1.1
COc1ccc(N2CCN(Cc3cc(OC)c(O)c([N+](=O)[O-])c3)CC2)cc1	.	-13.6	-15.7	8.2	2.4	-11.4	i	-4.4
CCCCN1CC(=O)N2[C@H]3c4ccc(OC)cc4OC[C@@H]3[C@H](C(=O)OCC)[C@]2(C)C1=O	-10.0	.	-6.1	0.4	1.1	-2.4	.	.
CCOc1cc(/C=C(\C#N)c2nc3ccccc3[nH]2)ccc1OC(C)C(=O)O (configuration not stated)	16.2	-1.6	-18.5	1.5	1.2	-11.3	i	-10.1
O=C(c1cc2c(s1)CCCCC2)N1CCN(c2ncccn2)CC1	-5.1	-18.1	-12.8	-0.4	2.5	-0.6	i	-5.8
Cc1ccc(S(=O)(=O)c2c(COC(=O)c3cccc(Cl)c3)c(-c3ccccc3)nn2C)cc1	.	-2.2	-3.0	-7.1	-11.8	-17.3	i	-3.0

Random draw from the library. About 2.9% of those tested had a hit in this group.
